From PubChem BioAssay
RE007 growth inh = less growth of the S. pombe RE007 Vpr strain. S. pombe RE007 Vpr strain, BacTiter-Glo ATP luminescence, 24 h; control for the full effect not named in the record. Potency, µM (series often up to 92.2 µM), for inactives: top-dose activity change, negative = less growth. hit rate 0.21% among 360,000. AID 651644; active = well fitted falling curve with a large enough effect; inconclusive = small, poorly fitted or top-dose-only effect; inactive = no such curve, though single readings can be large or run the other way;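 further: on the % scale 0 is the no-effect control and ±100 the full control effect; nearly all actives have a fitted effect of over 50% in size; the assay follows cell death caused by Vpr and the record does not say whether a fall means rescue or toxicity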
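Fission yeast strain RE007, carrying one chromosomally integrated HIV-1 vpr copy, was seeded at OD 0.01 in PMG+AL medium with 23 nL pinned compound. After 24 h at 30 °C and 99% humidity, viability was read by BacTiter-Glo luminescence.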
SARS PLpro yeast = SARS-CoV PLP inhibition in yeast; S. cerevisiae expressing SARS-CoV PLpro, growth rescue; control for the full effect not named in the record; Potency, µM (titrated, usually from 32.9 µM), for the others: at the highest dose activity, positive = growth rescue; hit rate 0.19% among 330,000; AID 485353; active means well fitted rising curve with a large enough effect; inconclusive means small, poorly fitted or top-dose-only effect; inactive means no such curve, though single readings can be large or run the other way; further: 0% is about no effect; nearly all actives have a fitted effect of over 55% in size; growth read by luminescence after 48 h
Lassa entry inh = Lassa virus entry inhibition; AID 540256; Lassa virus pseudotype entry inhibition, cell reporter; control for the full effect not named in the record; Potency, µM (titrated, usually from 37.9 µM), without a hit: at the top dose activity change, negative = inhibition, hits mostly inhibitors; hit rate 1.2% among 300,000; active means well fitted inhibition curve with a large enough effect; inconclusive means small, poorly fitted or top-dose-only effect, or effect the other way; inactive means flat fitted curve, though single readings scatter; tested in HEK293 cells; further: on the % scale 0 is the no-effect control and ±100 the full control effect; nearly all actives have a fitted effect of over 50% in size; luciferase read-out
NS1 inh = inhibitors of influenza NS1 protein function; S. cerevisiae slowed by influenza A NS1, growth recovery by OD600; Potency, µM (titrated, usually from 46.1 µM), without a hit: top-dose activity, positive = more growth; hit rate 0.4% among 270,000; active means well fitted rising curve with a large enough effect; inconclusive means small, poorly fitted or top-dose-only effect; inactive means no such curve, though single readings can be large or run the other way; further: nearly all actives have a fitted effect of over 50% in size
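Compounds were scored for reversing the slow growth caused by influenza A NS1 in S. cerevisiae, measured by optical density at 600 nm. Assay medium contained 2% galactose at pH 6.0; NS1-free yeast of the same strain were the positive control.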
Cruzain noTriton = blocks cruzain activity in detergent-free assay. purified cruzain, Z-FR-AMC fluorescence, no detergent. Potency, µM, inactives show max response, negative = inhibition, usual class: inhibitors. hit rate 2.3% among 200,000. AID 1476;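 further: plate controls were enzyme without inhibitor for no effect and buffer without enzyme for full effect; nearly all actives have a fitted effect of over 40% in size; top concentration of the series not given in the record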
Target sequence (P25779 123-467 limits assumed): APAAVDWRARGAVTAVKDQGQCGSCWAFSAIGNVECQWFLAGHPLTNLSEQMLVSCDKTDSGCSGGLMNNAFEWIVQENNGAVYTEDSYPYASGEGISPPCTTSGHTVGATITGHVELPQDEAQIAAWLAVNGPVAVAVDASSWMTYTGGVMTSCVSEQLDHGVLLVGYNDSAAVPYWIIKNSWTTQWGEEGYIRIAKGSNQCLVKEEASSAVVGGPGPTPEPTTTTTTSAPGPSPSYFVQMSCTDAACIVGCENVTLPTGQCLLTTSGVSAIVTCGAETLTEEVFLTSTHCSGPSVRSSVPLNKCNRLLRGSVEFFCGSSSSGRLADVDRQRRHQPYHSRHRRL
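Detergent-free condition (0.00005% Triton X-100) in acetate buffer pH 5.5 with DTT. 1.5 nM enzyme and compound were pre-mixed 15 min, then 2 uM Z-FR-AMC substrate added; reaction progress from fluorescence change between first and third reads (60 s).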
Cruzain inh Det = cruzain (T. cruzi) inhibition with detergent | P25779 | purified cruzain, Z-FR-AMC fluorescence, 0.01% Triton | Potency, µM, for inactives: max response, negative = inhibition, usual class: inhibitors | hit rate 0.43% among 200,000;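 further: plate controls were neutral wells for no effect and buffer without enzyme for full effect; nearly all actives have a fitted effect of over 40% in size; top concentration of the series not given in the record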
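Purified cruzain (1.5 nM final) was preincubated with compounds for 15 min at room temperature in 100 mM sodium acetate pH 5.5, 5 mM DTT, 0.01% Triton X-100. Reaction started with 2 uM Z-FR-AMC; AMC fluorescence change over 60 s gave activity.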
Marburg entry inh = Marburg virus entry inhibition | Marburg virus pseudotyped entry inhibition, cell reporter; control for the full effect not named in the record; about a third of the inactives were read at about 46 µM | Potency, µM (doses to about 37.8 µM), for inactives: at the top dose activity change, negative = inhibition, hits mostly inhibitors | hit rate 1.8% among 300,000 | AID 540276; active = well fitted inhibition curve with a large enough effect; inconclusive = small, poorly fitted or top-dose-only effect, or effect the other way; inactive = flat fitted curve, though single readings scatter; tested in HEK293 cells; about a fifth of its hits are not listed in these tables; further: on the % scale 0 is the no-effect control and ±100 the full control effect; luciferase read-out
2A StopGo = FMDV 2A StopGo reporter, luciferase signal | AID 1159524 | hit rate 1.2% among 410,000 | Potency, µM (top dose mostly 57.9 µM), for inactives: at the top dose signal change, negative = less light | human cells with a luciferase reporter of 2A StopGo recoding; control for the full effect not named in the record; active = well fitted falling curve with a large enough effect; inconclusive = small, poorly fitted or top-dose-only effect; inactive = no such curve, though single readings can be large or run the other way; tested in HEK293T cells; further: on the % scale 0 is the no-effect control and ±100 the full control effect; nearly all actives have a fitted effect of over 45% in size; luciferase light after 4 h
Numbers without * were called inactive; ? = inconclusive; . = not tested or not shown; & = joins results of further samples; [ ] = another dose, or the depositor's remark. Unless noted, the call rests on the fitted dose curve; in most records, active means well fitted curve in the direction sought with a large enough effect; inconclusive means small, poorly fitted or top-dose-only effect, or another doubt; inactive means no such curve, though single readings can be large; an effect the other way counts as inactive or inconclusive. Potency means the concentration at half of the fitted maximal effect.

molecule	RE007 growth inh	SARS PLpro yeast	Lassa entry inh	NS1 inh	Cruzain noTriton	Cruzain inh Det	Marburg entry inh	2A StopGo
NC(=O)c1ccc(-n2nnnc2SCC(=O)Nc2ccc(N3CCOCC3)c(Cl)c2)cc1	3%	3%	8%	-4%	9%	4.6%	-6%	-29%
CC(=O)Nc1ccc(S(=O)(=O)N=S(C)C)cc1	10%	-1%&3%	3%	3%&6%&1%	4%&-2%	-0.5%&2.5%	-15%&-15%&-15%&-15%	-18%
COc1ccc(-c2ccc(-c3noc(-c4ccco4)n3)c(OC)n2)cc1	-6%	-3%	14%	15%	-29%	-4.4%	?	45%[activator]
COc1ccc(C2C3=C(CC(C)(C)CC3=O)Oc3ncn(Cc4ccco4)c(=N)c32)cc1 (stereo not given)	0%	-15%	?	8%	6%	0.7%	?	28µM*
Cc1c(CCC(=O)NCCc2ccccc2)c(=O)oc2cc(O)ccc12	.	.	?	.	5%	-29%	17%[46.1 µM]	-3%
O=c1[nH]c(SCc2ccccc2)nnc1-c1ccccc1	-11%	-16%	7%	-42%	-9%	-2.2%	13%	0%
CCCn1c(CCC(=O)Nc2cc(C(=O)OC)cc(C(=O)OC)c2)nc2cccnc21	.	.	-17%[46.1 µM]	.	10%	1.0%	11%[46.1 µM]	-22%
O=C(C[n+]1ccccc1)N/N=C/c1ccco1	11%	1%	7%	-5%	.	.	-9%[46.1 µM]	4%
O=C(COc1ccc(S(=O)(=O)N2CCCC2)cc1)NCCC1=CCCCC1	-2%	-8%	-2%	-7%	-2%	-3.5%	0%	-14%
CCC(C)OC(=O)/C(C#N)=C\c1ccc(-c2cccc(C(F)(F)F)c2)o1 (stereo not given)	.	.	-26%[46.1 µM]	.	3%	-2.6%	.	-10%
CNC(=S)N1C2CCC1CC(NC(=O)NC13CC4CC(CC(C4)C1)C3)C2 (stereo not given)	14%	?	10%	5%	22%	0.1%	-5%	.
COc1cc(OC)cc(C(=O)Nc2ccccc2C(=O)NCc2cccnc2)c1	22%	-2%	-21%[46.1 µM]	-1%	.	.	?	-16%
O=C(CSc1ncc(-c2ccccc2)[nH]1)Nc1cccc(C(F)(F)F)c1	.	.	10%[46.1 µM]	.	17%	-13%	25%[46.1 µM]	19%
Cc1cc(C)c(S(=O)(=O)N2CCN(C(=O)N(C)C)CC2)c(C)c1	30%	1%	-2%	7%	.	.	-11%	-22%
CCC(C)c1ccccc1OCCn1ccnc1 (stereo not given)	12%	14%	11%	-12%	-2%	-0.7%	6%	1%
COc1ccc(N2CCN(C(=O)c3cc(C)on3)CC2)cc1	16%	2%	3%[46.1 µM]	7%	.	.	-10%[46.1 µM]	-23%
CC(C)NC(=O)CSc1ccccc1C(=O)N1CCN(S(=O)(=O)Cc2ccccc2)CC1	-11%	-17%	16%	.	.	.	3%	-24%
Cc1c(Cl)cccc1NC(=O)CSc1cc(-c2ccccc2)ncn1	.	.	1%[46.1 µM]	.	-7%	-1.1%	2%[46.1 µM]	-16%
CC(C)NS(=O)(=O)c1ccc2c(c1)NCC2	5%	?	10%	18%	1%	0.1%	0%	2%
CC(C)COc1ccc(C(=O)OCC(=O)NCc2cccs2)cc1	5%	-6%	?	.	.	.	-32%	-25%
COc1ccccc1/C=C\C=N\n1c(-c2ccc(Cl)cc2)n[nH]c1=S	-2%	-30%	10µM*	-1%	?	0.7%	-17%	50%[activator]
CC1(C)CNC(=O)CC(C)(C)N1	-5%	4%	-9%	.	.	.	2%	-14%
O=C(CSc1ccccc1)N1CCCC(Nc2ccccc2)C1 (stereo not given)	-8%	-18%	.	-6%	.	.	.	-5%
COc1ccc(S(=O)(=O)N2CCC(n3c(C)nc4cccnc43)CC2)cc1Cl	.	.	-14%[46.1 µM]	.	?	-1.8%	.	-4%
CNc1nc(OCC(F)(F)F)nc(OCC(F)(F)F)n1	-10%	.	23%	.	.	.	-13%[46.1 µM]	-9%
O=C(O)c1cc(S(=O)(=O)N2CCN(C(=O)c3ccco3)CC2)c(Cl)cc1Cl	29%	1%	.	0%	.	.	3%[46.1 µM]	17%
Cc1cc(C)cc(C(=O)NCCn2cc(SCC(=O)N3CCOCC3)c3ccccc32)c1	3%	12%	.	-2%	?	1.0%	-1%	?
Cc1cnc(C(=O)OC(C(=O)Nc2cc(C(F)(F)F)ccc2Cl)c2ccccc2)cn1 (stereo not given)	2%	-6%	10%	-43%	.	.	14%	-18%
[O-][n+]1c2c(nn1-c1ccccc1Cl)-c1nonc1CC2	16%	2%	27%	1%	1%	-2.7%	9%	.
CCc1ccc2nc(N3CCN(C(=O)C4CC4)CC3)sc2c1	.	.	-1%[46.1 µM]	.	0%	-1.6%	.	11%
COc1cccc(C2CC(c3ccc(C)cc3)n3ncnc3N2)c1 (stereo not given)	2%	1%	.	-3%	3%	-3.4%	.	-21%

Entries from the list above that have four or more nitrogen atoms (8):
molecule	RE007 growth inh	SARS PLpro yeast	Lassa entry inh	NS1 inh	Cruzain noTriton	Cruzain inh Det	Marburg entry inh	2A StopGo
NC(=O)c1ccc(-n2nnnc2SCC(=O)Nc2ccc(N3CCOCC3)c(Cl)c2)cc1	3%	3%	8%	-4%	9%	4.6%	-6%	-29%
CCCn1c(CCC(=O)Nc2cc(C(=O)OC)cc(C(=O)OC)c2)nc2cccnc21	.	.	-17%[46.1 µM]	.	10%	1.0%	11%[46.1 µM]	-22%
CNC(=S)N1C2CCC1CC(NC(=O)NC13CC4CC(CC(C4)C1)C3)C2 (stereo not given)	14%	?	10%	5%	22%	0.1%	-5%	.
COc1ccccc1/C=C\C=N\n1c(-c2ccc(Cl)cc2)n[nH]c1=S	-2%	-30%	10µM*	-1%	?	0.7%	-17%	50%[activator]
COc1ccc(S(=O)(=O)N2CCC(n3c(C)nc4cccnc43)CC2)cc1Cl	.	.	-14%[46.1 µM]	.	?	-1.8%	.	-4%
CNc1nc(OCC(F)(F)F)nc(OCC(F)(F)F)n1	-10%	.	23%	.	.	.	-13%[46.1 µM]	-9%
[O-][n+]1c2c(nn1-c1ccccc1Cl)-c1nonc1CC2	16%	2%	27%	1%	1%	-2.7%	9%	.
COc1cccc(C2CC(c3ccc(C)cc3)n3ncnc3N2)c1 (stereo not given)	2%	1%	.	-3%	3%	-3.4%	.	-21%
